PINK1 modulator – modulators of PINK1 expression. AID 624263. PINK1 immunofluorescence, high-content cytometry, 24 h. actives 0.2% (n = 410,000). Potency, µM (titrated, usually from 76.6 µM), for the others: at the highest dose activation (PINK1 increase), actives largely listed as activators; active = well fitted activation curve with a large enough effect; inconclusive = small, poorly fitted or top-dose-only effect; inactive = flat fitted curve, though single readings scatter; cell line not stated here;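 also: potency is read from the fitted curve at half-maximal effect; % of control where 0% means no effect; nearly all actives have a fitted effect of over 65% in size; a mitochondrial uncoupler was the plate control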
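Fluorescence from anti-PINK1 antibody, together with nuclear and cell stains, was scanned on a laser-scanning cytometer. Before staining, stable-line cells were incubated 24 hours with compounds at 5 concentrations; primary antibody 12 h at 10 degrees C.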
ClpP mod – qHTS Assay for Activators of ClpP; ATP-dependent Clp protease proteolytic subunit (Bacillus subtilis (strain 168)), P80244; purified B. subtilis ClpP, FRET peptide cleavage, 20 min; Potency, µM (series often up to 57.5 µM), for the others: at the highest dose activity change, negative = active; actives 1.9% (n = 340,000); AID 651965, 2013; active = well fitted falling curve with a large enough effect; inconclusive = small, poorly fitted or top-dose-only effect; inactive = no such curve, though single readings can be large or run the other way; also: potency is read from the fitted curve at half-maximal effect; the source files actives as falling curves though it sought activators and does not explain the sign; nearly all actives have a fitted effect of over 65% in size; many hits overshoot -100%
Target sequence (P80244 whole entry, looked up): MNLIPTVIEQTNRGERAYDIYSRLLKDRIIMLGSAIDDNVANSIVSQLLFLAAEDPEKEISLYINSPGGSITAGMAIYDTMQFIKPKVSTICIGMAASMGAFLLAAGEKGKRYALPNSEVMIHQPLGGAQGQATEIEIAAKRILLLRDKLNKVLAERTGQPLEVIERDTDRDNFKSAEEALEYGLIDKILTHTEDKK
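Buffer: 100 mM Tris/HCl pH8, 100 mM KCl, 0.05% low protease BSA, 2.5% glycerol, 0.01% Tween-20. ClpP 10 microg/mL final; 20 min RT; delta FRET normalized to ADEP and DMSO controls.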
Sfp PPTase inh – Sfp phosphopantetheinyl transferase inhibition. Biochemical Sfp PPTase activity, qHTS. actives 3.5% (n = 310,000). Potency, µM, inactives show max response, negative = inhibition, usual class: inhibitors. Q9F4F7; active = well fitted inhibition curve with a large enough effect; inconclusive = small, poorly fitted or top-dose-only effect, or another doubt; inactive = no such curve, though single readings can be large or run the other way;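 also: the enzyme is Sfp with the accession as filed and its product quenches rhodamine fluorescence; potency is read from the fitted curve at half-maximal effect; 0% = enzyme reaction without inhibitor and -100% = no enzyme wells; top concentration of the series not given in the record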
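Sfp 15 nM + cpd, 15 min RT; start w/ rhodamine-CoA 5 uM, BHQ-2-YbbR 12.5 uM (final); 50 mM Hepes pH 7.6, 10 mM MgCl2, 0.01% NP-40, 0.01% BSA; read 525/598 nm at 0 and 30 min.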
gsp antag – gsp mutant antagonism | gsp-mutant cells, cAMP HTRF, 30 min; control for the full effect not named in the record | Potency, µM (doses to about 76.9 µM), inactives show at the top dose activity change, negative = inhibition, usual class: inhibitors | actives 0.4% (n = 340,000) | AID 624288; active = falling curve of any shape with a large fitted effect; inconclusive = falling curve, mostly with a smaller effect; inactive = flat or rising curve; cell line not stated here;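 also: intracellular cAMP measured with PDE inhibitor Ro 20-1724 present during compound exposure; potency is read from the fitted curve at half-maximal effect; % is scaled to controls: 0 for no effect and ±100 for the full control effect; nearly all actives have a fitted effect of over 65% in size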
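HTRF cAMP read-out (cAMP-d2 plus anti-cAMP antibody-K in lysis buffer, 30 min RT). Before lysis, cells are exposed to compounds with […] for 30 min at 37C in DPBS containing Ca/Mg, BSA and Tween 20.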
gsp agonist – activates gsp, the McCune-Albright syndrome mutation | gsp mutant cells, cAMP HTRF, 30 min; control for the full effect not named in the record | Potency, µM (top dose mostly 76.9 µM), without a hit: at the top dose activation (cAMP increase), hits mostly activators | actives 0.13% (n = 340,000) | AID 624287; active = well fitted activation curve with a large enough effect; inconclusive = small, poorly fitted or top-dose-only effect, or another doubt; inactive = no such curve, though single readings can be large or run the other way; cell line not stated here;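 also: phosphodiesterase inhibitor Ro 20-1724 added with compounds to block cAMP breakdown; potency is read from the fitted curve at half-maximal effect; nearly all actives have a fitted effect of over 60% in size; about a fifth of the inactives were tested at one dose only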
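Cells in DMEM/10% FBS with G418 were pretreated with compounds in DMSO plus […] (300 uM stock) for 30 min at 37C. cAMP was measured by HTRF (cAMP-d2 plus anti-cAMP antibody-K) after 30 min at room temperature.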
D2 ag – agonists of human D2 dopamine receptor (beta-arrestin); P14416; DiscoveRx PathHunter D2 beta-arrestin, luminescence, 90 min; 100% = 57 uM dopamine signal; activation, % (concentration not given with the values); actives 0.084% (n = 360,000); in the data active = activation above about 40%; inconclusive = about 15% to 40%; inactive = below about 15%; also: compound concentration not given in the record; the text of the record calls up to 30% inactive
Target sequence (P14416 whole entry, looked up): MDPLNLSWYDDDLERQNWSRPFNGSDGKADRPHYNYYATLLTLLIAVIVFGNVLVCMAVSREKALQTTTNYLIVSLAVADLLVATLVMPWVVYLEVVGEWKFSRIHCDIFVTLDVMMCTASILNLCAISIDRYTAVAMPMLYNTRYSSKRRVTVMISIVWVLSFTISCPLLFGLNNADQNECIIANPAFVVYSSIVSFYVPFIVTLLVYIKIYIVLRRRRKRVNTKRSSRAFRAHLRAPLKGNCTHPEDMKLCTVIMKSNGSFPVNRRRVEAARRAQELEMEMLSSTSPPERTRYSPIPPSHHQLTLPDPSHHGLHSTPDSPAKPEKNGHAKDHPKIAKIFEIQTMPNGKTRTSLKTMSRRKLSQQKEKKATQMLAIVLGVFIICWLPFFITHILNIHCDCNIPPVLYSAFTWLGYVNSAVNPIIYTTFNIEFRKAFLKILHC
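DiscoveRx PathHunter D2 beta-arrestin cells (2,100/well) attached overnight, then compound-stimulated 90 min at 37 C in HBSS/10 mM HEPES/0.1% Tween-20 buffer; beta-galactosidase complementation read by luminescence after 1 h at ambient temperature. Dopamine 57 uM final (EC100) as control.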
Menin-MLL FL inh – displaces fluorescein MLL peptide from human menin; Fluorescence polarization, fluorescein-MLL peptide displacement from menin; FP activity change, % at 61.4 µM; 290,000 tested, under 10 active; inconclusive = falling polarisation curve, or a change in total fluorescence; inactive = total fluorescence flat and polarisation flat or rising; no compound was filed as active; the % refers to the polarisation; negative = inhibition;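 also: % of control where 0% means no effect; inhibitors lower the polarisation; unlabelled MLL peptide was the positive control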
* marks the source's active call; other numbers are inactive results; ? = inconclusive; . = not tested or not shown; & = joins results of further samples; [ ] = dose if it differs, or a comment. Outcome played no part in choosing rows; any-hit rate near 5.1%.

SMILES	PINK1 modulator	ClpP mod	Sfp PPTase inh	gsp antag	gsp agonist	D2 ag	Menin-MLL FL inh
CS(=O)(=O)N1CCN(C(=O)c2cc(-c3ccccc3)nc3ccccc23)CC1	2.5%[38.3 µM]	-11%	6%	-5%	2%	-1.5	2.8
COc1cccc(NC(=O)c2ccccc2N2C(=O)C3C4C=CC(C4)C3C2=O)c1 (stereo not drawn)	2.7%	-0.4%	7%	-1%	-2%	-6.8	-3.4
O=C(OCCCN1CCCCC1)c1ccc(O)cc1	1.6%	-1.2%	7%	8%	-3%	-1.7	0.3
O=C(c1ccco1)N1CCCN(Cc2cn[nH]c2-c2ccc(-c3ccccc3)cc2)CC1	0.4%	.	4%	.	9%[15.4 µM]	8.3	-4.6
Cc1ccc([C@@H]2[C@@H]3C(=O)N(C)C(=O)[C@@H]3[C@]3(Cc4ccccc4)C(=O)N(Cc4ccccc4)CC(=O)N23)o1	1.3%	1.1%	7%	-1%	20%	-2.4	2.7
CN1CCC(OC(=O)COc2ccccc2)CC1	-2.8%	-0.6%	21%	5%	3%	-3.6	-0.9
Cc1cccc(N/C(N)=N/c2nc(C)cc(C)n2)c1	5.6%	32µM*	6%	14%	-2%	-3.2	-0.8
COCC1CCCCN1C(=O)c1cccc(OC2CCN(S(C)(=O)=O)CC2)c1 (stereo not drawn)	-0.9%	-1.2%	4%	7%	5%	-0.6	.
CNS(=O)(=O)c1cccc(C(=O)OCC(=O)c2ccc[nH]2)c1	-1.5%	0.3%	.	-1%	1%	-2.0	.
CCCNC(=O)Nc1nccs1	-2.0%	0.1%	-4%	15%	-3%	-0.7	2.9
CCOC(=O)NC(Nc1cc(C)ccn1)(C(F)(F)F)C(F)(F)F	0.8%	-18%	11%	11%	-30%[inhibitor]	0.9	1.3
CN(C(=O)CS(=O)(=O)c1cn(CC(=O)N2CCCC2)c2ccccc12)c1ccccc1	-1.0%	13%	.	4%	?	0.6	.
COc1ccc(-n2c(C)cc(C(=O)CCl)c2C)cc1	-2.3%	-1.1%	-8%	11%	-2%	5.1	3.9
c1ccc(N2CCOCCOCCOCCOCCOCC2)cc1	-0.3%	1.2%	15%	12%	-21%[15.4 µM]	-3.8	2.1
COc1ccc(NC(=O)c2cccc(OC(F)F)c2)cc1Cl	-0.2%	0.9%	-11%	-15%	-106%	-1.0	5.6
CCCCNC(=O)COC(=O)c1ccc(Cl)c(S(=O)(=O)N2CCCC2)c1	-1.5%	0.4%	3%	-17%	0%	-2.8	-2.8
CCOC(=O)Cc1csc(NC(=O)COC(=O)/C=C/c2ccc(OC)cc2)n1	-0.8%	-7.4%	.	-8%	6%	-4.4	.
COC(=O)c1ccc(Cn2c(C)c(C(=O)NCc3ccc(Cl)c(Cl)c3)sc2=O)o1	1.7%	-0.2%	.	.	.	?	.
Cc1cc(-c2nnc(SCc3cccnc3)o2)no1	-1.7%[38.3 µM]	-0.3%	11%	7%	26%	-0.4	0.8
Fc1ccc(Sc2ccccc2CNC2=NCCN2)cc1	-0.9%	0.5%	2%	11%	0%	-7.3	-1.3
CCO[C@@H]1OC(C(=O)N2CCN(C)CC2)=C[C@H](c2coc3ccccc3c2=O)[C@H]1CCCO	1.2%	-0.9%	5%	8%	.	-3.1	-0.5
O=C(COc1cccc(F)c1)N1c2ccccc2Sc2ccccc21	7.6%	0.9%	-9%	-28%	6%	?	2.7
COC(=O)C(CC(C)C)NC(=O)C(N)Cc1ccccc1 (stereo not drawn)	0.3%	0.0%	10%	0%	-4%	-3.9	2.9
O=c1cc(CN2CCOCC2)c2cc(Cl)ccc2o1	2.0%	-1.7%	6%	-2%	12%	-2.3	-2.5
Cc1ccc(NC(=O)[C@@H]2CCCN2S(=O)(=O)c2ccccc2C(F)(F)F)cc1S(=O)(=O)N1CCOCC1	3.6%	-2.4%	-6%	-15%	-1%	0.8	5.5
O=C1OC[C@H]2CCCN2C(=O)[C@@H](CC(=O)N(CCO)Cc2ccccc2)C/C=C\C[C@@H]1Cc1ccc(F)cc1	0.6%	-0.1%	.	-6%	.	-0.8	.
CC1(C)NC(=O)N(CC(=O)Nc2nc(-c3ccc(F)cc3)cs2)C1=O	3.0%	-11%	5%	-6%	0%	1.0	1.9
CC(C)(C)c1ccc(C(=O)CC(=O)c2cc(Cl)ccc2O)cc1	?	6.7%	7%	-18%	21%	-6.9	3.3
COc1ccc(NC(=S)NC(NC(=O)c2ccccc2Cl)C(Cl)(Cl)Cl)c([N+](=O)[O-])c1 (stereo not drawn)	3.3%[38.3 µM]	-2.1%	18%	-23%	4%	-1.7	2.6
Cc1ccc(NC(=O)NC2CCN(CC(=O)Nc3nccs3)CC2)cc1	-1.4%	1.2%	15%	0%	-7%	-1.0	-6.6
NC(=O)c1cc(S(=O)(=O)N2CCCC2)ccc1OCCOc1ccccc1F	13%	-1.7%	.	4%	5%[15.4 µM]	8.9	.
O=C(Nc1cccc(S(=O)(=O)N2CCCCCC2)c1)c1ccc(=O)[nH]c1	0.5%	0.5%	.	-4%	1%	-1.0	.
COc1cc2c(cc1OC)C1Cc3ccc(OC)c(OC)c3CN1CC2 (stereo not drawn)	3.7%&0.3%	2.3%	6%&6%	-7%	-9%	-3.6	3.3&-6.5
O=C(NC(=S)NCc1ccccc1)C1CCCCC1	-2.7%	13µM*	16%	5%	20%	-1.1	-1.7
Cc1cccc(-c2noc(CN(C)C(=O)c3ccoc3C)n2)c1	1.4%	.	2%	0%	-3%	10	3.9
Cc1ccc(S(=O)(=O)N2CCOCC2)cc1NC(=O)COC(=O)c1cc[n+]([O-])cc1	-0.5%	-1.1%	.	5%	-73%[inhibitor]	4.4	.
Cc1ccc(CCNC(=O)C23C[C@H]4C[C@@H](C2)CC(n2nnc(C)n2)(C4)C3)cc1	0.7%	.	18%	-11%	18%	-1.0	1.0
COc1ccc(C2=NN(C(=O)c3ccncc3)C(c3ccccc3O)C2)cc1 (stereo not drawn)	-0.6%	.	14µM*	-16%	-8%[15.4 µM]	1.9	20
CN1OC[C@@H]2CN(C(=S)NCCc3ccccc3)[C@H](c3ccc(N4CCCCC4)cc3)C[C@@H]21	2.6%	0.5%	.	.	.	-4.2	.
Cc1cccc(C)c1NC(=S)Nc1ccccc1C(=O)NCc1ccco1	2.5%	25µM*	-13%	7%	2%	-1.3	0.5
Cc1nnc(NC(=O)c2ccccc2Oc2ccccc2)s1	-0.2%	-2.3%	12%	-4%	20%	-3.5	-0.2
Cc1ccc2oc(=O)c3cc(C(=O)NCCCN4CCCC(C)C4)sc3c2c1 (stereo not drawn)	-0.7%	-8.5%	6%	21%	-26%	-1.5	.
O=C(NCc1cccnc1)c1ccc(Cn2cc(C(F)(F)F)ccc2=O)cc1	0.2%	.	16%	1%	16%	1.2	-5.0
O=C(/C=C/c1ccc(Cl)cc1Cl)NCCN1CCOCC1	-1.5%	-1.9%	-1%	5%	-37%[inhibitor]	-1.4	2.4
CCCn1c(C)nc2cc(Cl)c(N3CCN(c4nc(-c5ccc(C)cc5)cs4)CC3)cc21	1.4%	0.3%	-8%	-7%	0%	-2.5	12
O=c1c(Cl)nc2cc(Cl)ccc2n1CCNc1ncc(C(F)(F)F)cc1Cl	1.5%	-2.6%	16%	?	2%	-2.4	16
CCN(CC)C(=O)C1=C(C)N(CCC2=CCCCC2)C(=O)C(CC(=O)NCCN2CCOCC2)C1 (stereo not drawn)	0.3%	-0.5%	.	.	-39%[inhibitor]	-8.4	.
CCCOc1ccc(C2C(C(=O)c3ccc(C)o3)=C(O)C(=O)N2Cc2ccco2)cc1OCC (stereo not drawn)	1.8%	-0.8%	-10%	-17%	?	-4.7	-2.7
COc1ccccc1CNC(=O)c1cc(S(=O)(=O)N2CCCC2)cn1C	-0.2%	1.2%	9%	1%	-8%	0.0	3.8
COc1ccc(N2CCN(CCNC(=O)Nc3cccc(C)c3C)CC2)cc1	0.3%	-4.2%	6%	6%	22%	-2.9	-4.3
CCOc1ccccc1NC(=O)c1cc(=O)[nH]c2ccc(S(=O)(=O)N3CCOCC3)cc12	0.3%	3.3%	.	9%	-125%[inhibitor]	-7.6	.
COc1ccc(C(=O)NCC2(c3ccccc3)CCOCC2)cc1	1.5%	.	11%	14%	-1%[15.4 µM]	0.1	6.0
Cc1ccccc1OCC(=O)N/N=C/c1cccc2cccnc12	1.5%	-3.3%	-3%	-3%	-6%[15.4 µM]	1.4	.
Cn1c(SCC(=O)NCC2CCCO2)nc2c([nH]c3ccccc32)c1=O (stereo not drawn)	.	-12%	4%	0%	-39%[inhibitor]	-0.5	4.8
Cn1c(SCC(=O)Nc2cccnc2Cl)nnc1-c1ccco1	1.6%	.	.	13%	?	-0.2	.
OCc1ccc(-c2ccccc2)c(-c2ccccc2)c1	2.2%	.	.	-10%	-52%[inhibitor]	3.1	.
Cc1ccc(S(=O)(=O)Nc2ccncc2)c(C)c1	4.3%	-14%	6%	-6%	17%[15.4 µM]	-1.0	-5.5
O=C(NCCc1ccc(Cl)cc1)C1CCN(c2ncccn2)CC1	1.1%	.	0%	.	-1%[15.4 µM]	-1.5	3.7
COCc1c(C(=O)N2CCN(Cc3nc4ccccc4s3)CC2)oc2ccccc12	0.9%	-2.8%	.	-4%	22%	-3.6	.
CC(C)n1ncc2c(C(=O)O)cc(C3CC3)nc21	1.8%	3.5%	-6%	-14%	-18%	0.3	-8.4
COc1cc(C2(c3ccc(O)c(OC)c3)C(=O)N(C)c3ccc(C)cc32)ccc1O	3.5%	.	.	0%	-13%	-0.8	.
Cc1cc2oc(=O)cc(CSc3nc(N)cc(N)n3)c2cc1C(C)C	-0.7%	-1.0%	-8%	3%	-74%[inhibitor]	3.2	1.5
O=C(CSc1nnc2ccc(-c3ccccn3)nn12)Nc1ccc(F)cc1F	0.3%	0.2%	.	22%	-4%[15.4 µM]	-2.8	.
